Bioassay records deposited in PubChem BioAssay by National Center for Advancing Translational Sciences (NCATS).
hNpr1 antagonist – human Npr1 receptor antagonism | HEK293 hNpr1 GloSensor cGMP, ANP-stimulated luminescence | AID 1347048 | P16066 | 1.6% of 76,000 active | Potency, µM (titrated, usually from 46.3 µM), without a hit: at the highest dose activity change, negative = inhibition, most hits filed as inhibitors; active = well fitted inhibition curve with a large enough effect; inconclusive = small, poorly fitted or top-dose-only effect; inactive = no such curve, though single readings can be large or run the other way;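 further: nearly all actives have a fitted effect of over 60% in size; nearly all hits also lower the signal before the agonist is added; a reference antagonist and vehicle were the controls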
Target sequence (P16066 whole entry, looked up): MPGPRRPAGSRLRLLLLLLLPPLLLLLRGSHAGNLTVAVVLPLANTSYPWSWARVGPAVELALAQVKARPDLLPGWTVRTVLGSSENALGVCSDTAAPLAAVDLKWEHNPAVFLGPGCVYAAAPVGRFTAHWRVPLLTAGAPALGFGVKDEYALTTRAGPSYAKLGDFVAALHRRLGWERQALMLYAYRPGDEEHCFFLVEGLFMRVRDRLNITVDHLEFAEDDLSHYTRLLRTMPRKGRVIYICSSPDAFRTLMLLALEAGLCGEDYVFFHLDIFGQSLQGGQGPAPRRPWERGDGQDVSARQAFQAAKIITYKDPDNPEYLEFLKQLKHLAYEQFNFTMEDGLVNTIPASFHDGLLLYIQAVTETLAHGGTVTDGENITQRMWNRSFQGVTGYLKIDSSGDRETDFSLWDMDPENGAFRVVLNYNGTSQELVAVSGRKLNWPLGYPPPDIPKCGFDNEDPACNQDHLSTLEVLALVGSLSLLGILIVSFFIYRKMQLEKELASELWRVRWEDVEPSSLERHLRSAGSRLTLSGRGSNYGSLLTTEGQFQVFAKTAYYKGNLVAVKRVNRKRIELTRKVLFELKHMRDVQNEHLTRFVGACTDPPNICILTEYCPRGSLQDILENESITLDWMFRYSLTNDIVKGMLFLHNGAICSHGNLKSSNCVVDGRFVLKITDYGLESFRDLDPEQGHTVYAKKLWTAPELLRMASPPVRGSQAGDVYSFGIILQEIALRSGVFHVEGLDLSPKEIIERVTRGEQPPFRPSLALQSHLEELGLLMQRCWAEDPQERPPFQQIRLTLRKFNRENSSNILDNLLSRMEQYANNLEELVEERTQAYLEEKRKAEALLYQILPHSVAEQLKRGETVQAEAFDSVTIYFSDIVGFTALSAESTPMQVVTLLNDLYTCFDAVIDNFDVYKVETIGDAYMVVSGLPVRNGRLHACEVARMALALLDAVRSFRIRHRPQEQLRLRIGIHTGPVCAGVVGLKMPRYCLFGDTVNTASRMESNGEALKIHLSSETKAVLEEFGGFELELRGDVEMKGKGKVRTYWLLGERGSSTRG
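HEK293 cells stably expressing human Npr1 and cGMP GloSensor pGS-40F, loaded 2 h with 2% GloSensor reagent, given compound 30 min at room temperature. Luminescence read before and 20 min after 0.1 nM hNppA.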
Active calls of the source: *; ? = inconclusive; [ ] = remark or other dose. On the % scale 0 is the no-effect control and ±100 the full control effect; potency means the concentration at half of the fitted maximal effect.

SMILES	hNpr1 antagonist
O=C(O)C[C@@H]1CCN(C(=O)NC2CCCCC2)C[C@@H]1CCN1CCC(C(=O)O)CC1	3%[70.6 µM]
O=C(CCn1cnnn1)N1CCc2nn(Cc3ccccc3)c(=O)n2CC1	0%
O=C(NC1C[C@H]2CC[C@@H](C1)N2S(=O)(=O)c1ccc(Cl)s1)c1ccncc1 (some centres not stated)	-16%
COc1ccc(Nc2cc3c(nc2OC)nc(CCc2ccccc2)n3C)cn1	-24%[70.6 µM]
CCOc1ccccc1CNC(=O)C1c2ccccc2CC(=O)N1CC (configuration not stated)	-15%
O=C(c1ccccn1)N1C[C@@H]2C[C@H](C1)c1ccc(NS(=O)(=O)c3cccc(F)c3)c(=O)n1C2	1%
Cc1cc(C)cc(C(=O)N2CCN(C3CCN(CCc4ccccc4)C3=O)CC2)c1 (configuration not stated)	-18%
COc1cccc(N2CC3(COCCN(C(=O)c4ccc(OC)c(OC)c4)C3)C2)c1	-3%[70.6 µM]
O=C(Nc1ccccc1)N[C@H]1[C@H](O)[C@@H](N2CCN(c3ccccc3)CC2)[C@@H]2OC[C@H]1O2	7%[70.6 µM]
CCCCc1cc(C[C@H]2CNCC[C@H]2CC(=O)NC2CCCCC2)no1	2%[70.6 µM]
Cc1ccc(C)c(NC(=O)Cn2c(N3CCCCC3)nc(C)c(C)c2=O)c1	0%
CCC[C@H]1CN(CC(=O)NCCc2ccc(F)cc2)C[C@@H]1NC(C)=O	9%
CC(C)C[C@@H](NC(=O)C1=C[C@@H](NC(=O)Nc2cccc(F)c2)[C@@H](O)[C@H](O)C1)C(N)=O	2%[70.6 µM]
O=C(c1n[nH]c2ccccc12)N1CCC(OCCOc2ccccc2)CC1	?
COc1ccc(-c2nnc3n2CCN(C(=O)N(C)C)C3)cc1	-15%[70.6 µM]
Cc1ccc(Cn2c(-c3cccc(Cl)c3)nc(C)c(CCO)c2=O)cc1	1%
COc1ccc(-c2cccc(COc3ccc4c(cnn4CC[S+](C)(=O)[O-])c3)c2)cc1	-30%[70.6 µM]
Cc1noc(C)c1CC(=O)N1CCC(CCOc2ccccc2F)C1 (configuration not stated)	-16%
CNC(=O)c1cc2cccnn2n1	1%[70.6 µM]
COc1ccc(-c2cc(N3CCCN(C(=O)c4ccsc4)CC3)n[nH]2)cc1	-8%
O=C(Cc1cccc(F)c1)N1CCCCCC1c1nnc(-c2ccccc2)o1 (configuration not stated)	3%
CCNC(=O)CCc1c(C)nn(-c2ccc(F)cc2)c1Oc1ccccc1C	-21%
Cc1ccc(CN2C(=O)OC(c3cccc(NC(=O)c4cccs4)c3)C2C(=O)NC2CC2)cc1 (configuration not stated)	4%
CCn1c(C2CCCN(CC(C)(C)CN3CCOCC3)C2)nn(C)c1=O (configuration not stated)	-1%
Cc1ccccc1CN1CCC2(CC1)OC(=O)N(Cc1ccc(O)cc1)C2(C)c1ccccc1 (configuration not stated)	-25%
O=C(NC1CC(=O)N(Cc2ccccc2C(F)(F)F)C1)C1CCOCC1 (configuration not stated)	3%
Cc1noc(C)c1S(=O)(=O)N1C[C@@H](C(N)=O)[C@H](C2CCN(C)CC2)C1	1%
CCCc1nc(NCc2c(F)ccc(OC)c2F)c2cnn(C)c2n1	?
COc1ccccc1CN1CCc2nc(C(=O)NCc3cccc(F)c3)oc2CC1	-3%[70.6 µM]
CC(C)N1C(=O)C2(CCCC2)C1C(=O)N(C)Cc1cccnc1 (configuration not stated)	0%
COc1cc(NC(=O)CCC2CCN(C(=O)c3ccccc3F)CC2)cc(OC)c1	-12%
O=C(NC[C@H]1O[C@@H](CO)[C@@H](O)[C@H]1N1CCc2ccccc2C1)c1ccco1	13%[70.6 µM]
COc1cc(=O)n2c(c1C(=O)NCc1ccccc1C(F)(F)F)CCCC2	2%
c1ccc(C2=NOC3(CCCN(Cc4cccc5ccccc45)C3)C2)nc1 (configuration not stated)	5%
Cc1ccc(CC(=O)N[C@@H]2CN(c3ccncn3)C[C@H]2CO)cc1	-1%
O=C(CCC1CCCC1)N1CCC2(CC1)CC(N(Cc1ccccc1)C1CC1)CCO2 (configuration not stated)	-1%
CC(C)(N)C(=O)N1CCCC(N2CCN(Cc3ccc4c(c3)OCO4)CC2)C1 (configuration not stated)	3%
Cc1noc(-c2cn(C3CCCN(C(=O)c4cccc(Cl)c4)C3)nn2)n1 (configuration not stated)	-8%
O=S(=O)(NC[C@H]1O[C@H](Cc2cc(CN3CCOCC3)on2)CC[C@@H]1O)c1ccccc1	-4%
CC(C)N1C[C@H](O)C[C@H]1c1nnc2n1CCN(C(=O)CCC1CCCC1)C2	-1%
COCc1nc(-c2ccc(OC3CN(C(=O)Nc4cccc(C)c4)C3)cc2)no1	?
CC(C)CCN1CCC2(CC1)CC(=O)c1ccc(Cl)cc1O2	-27%[70.6 µM]
Cc1ccc(C2NC(=O)N(CC(=O)NCCCc3ccccc3)C3=C2C(=O)OC3)cc1 (configuration not stated)	-10%
C(=C\c1ccccc1)/CN1CCN(c2nccc(-c3cccnc3)n2)CC1	?
CC(=O)N1C[C@@H]2CCCN3CCC[C@@H]([C@H]23)[C@H]1CCCC(=O)NCCC1CCN(C(C)C)CC1	1%
Cc1nc(C)c(CC(=O)N2CCOC(C(F)(F)F)C2)c(=O)[nH]1 (configuration not stated)	4%
CN(Cc1ccc(CN2CCCC(O)(CO)C2)o1)S(C)(=O)=O (configuration not stated)	5%
COc1ccc(CCC(=O)NC2CCc3nnc(C)n3CC2)cc1OC (configuration not stated)	1%
COCCN1CCC(N2CCN(C(=O)c3cc(C)ccc3C)CC2)C1=O (configuration not stated)	1%
O=C(NCCc1cccs1)C1CN(S(=O)(=O)C2CC2)CC12CCCCC2 (configuration not stated)	-3%
COc1ccc(C2Cn3nnc(C(=O)NCc4ccc(SC)cc4)c3CO2)cc1 (configuration not stated)	2%
COCCn1c(Cn2cnc(C(C)(C)C)c2)nnc1C1CC(N)C1 (configuration not stated)	3%
COc1cccc(NC(=O)N2CCN(C(=O)c3cccnc3)[C@@H](C(=O)N[C@H]3CCCNC3=O)C2)c1	-3%
COCCC1(NC(=O)C2CC2)CCN(S(=O)(=O)c2ccccc2)CC1	-4%
COc1c(C)cc(C(C(=O)O)N2CCC(CN3CCCC3=O)CC2)cc1C (configuration not stated)	2%
c1ccc(-c2nnc(CN3CCN(c4cnccn4)CC3)o2)cc1	-9%
CCOc1ccccc1C1NC(=O)N(CC(=O)NC2CCCC2)C2=C1C(=O)OC2 (configuration not stated)	4%
Cc1nnc(NC(=O)NC2CCN(Cc3ccccc3)CC2)s1	-4%
CCc1noc(C)c1C(=O)N1CC[C@@H](NC(=O)c2ccccn2)[C@H](O)C1	4%
CC(C)NC(=O)NC[C@H]1O[C@@H](CC(=O)N2CCN(c3ccc(F)cc3)CC2)[C@H](O)[C@@H]1O	2%

(list continues)
SMILES	hNpr1 antagonist
CN1CCN(C2CCN(CCc3ccccc3)C2=O)CC1 (configuration not stated)	4%
c1ccc(O[C@H]2COCCN(Cc3ccc(-c4ccccc4)cc3)C2)cc1	-24%[70.6 µM]
Cc1nc(CCNc2cc(C3CC(O)C3)ncn2)sc1C (configuration not stated)	?
Cc1ccc(-c2ncc(C(=O)NCCN(C)C3CCCCC3)c(-c3ccncc3)n2)cc1	1%
CCC1CN(C(=O)c2ccc(C#CC(C)(C)O)o2)CCN1C(C)C (configuration not stated)	5%
COc1ccc2[nH]c3c(c2c1)CCNC31CCN(C(=O)Cn2c(=O)oc3ccccc32)CC1	2%
O=C1COc2cc(C(=O)NC3CC(c4nnc(CO)n4C4CC4)C3)ccc2N1 (configuration not stated)	2%
COCCN1CC2(CCC1=O)CCN(C(=O)C(C)SC)CC2 (configuration not stated)	0%
C[C@@H](NC(=O)C1=C[C@@H](NC(=O)NC2CCCCC2)[C@@H](O)[C@H](O)C1)C(N)=O	-1%[70.6 µM]
O=C(C[C@@H]1CCNC[C@@H]1Cc1cc(CC2CCCCC2)on1)N1CCOCC1	-1%[70.6 µM]
COCC(=O)N[C@H]1CC[C@]2(C)CC[C@@H](C(C)C(=O)NC3CC3)[C@H](O)[C@H]2[C@@H]1C (some centres not stated)	4%[70.6 µM]
Cc1ccc(S(=O)(=O)N2CCC(n3cnnc3C(C)C)CC2)cc1C	?
CC(Oc1ccccc1)C(=O)N1CCC(Cc2nncn2C(C)C)CC1 (configuration not stated)	-5%
O=S(=O)(c1cccc2nonc12)N1CCC2(CCCNC2)C1 (configuration not stated)	-2%
CC(C)c1nc2c(c(-c3ccc(O)cc3)n1)CCN(Cc1cncs1)CC2	8%
O=C(CCC1CCCN(S(=O)(=O)c2ccccc2F)C1)NCc1cc(F)ccc1F (configuration not stated)	4%
COc1cccc(CNC(=O)c2cc3c(=O)[nH]c(C)cn3n2)c1	19%
COCc1ccc(CN2CCCC(CNC(=O)c3cccc(OC)c3OC)C2)o1 (configuration not stated)	1%
COC[C@@H]1CN(C(=O)CC2=CCCCC2)C[C@H]1c1nc(C2CC2)no1	6%
COc1ccc(CN2C=C(C(=O)OCc3nc(-c4ccc(F)cc4)no3)C(C)=NS2(=O)=O)cc1	?
CCOc1cccc(CNC(=O)c2ccc(CN3C(=O)NC4(CCOCC4)C3=O)cc2)c1	-25%
COCC(c1ccccn1)N(C)C(=O)c1cc(S(N)(=O)=O)ccc1F (configuration not stated)	3%
COc1ccc(-c2ccc3c(c2)C(=O)N2C[C@H](O)C[C@H]2C(=O)N3)cc1	6%[70.6 µM]
CCN1C(=O)CCN(Cc2ccc(O)cc2)CC12CCOCC2	-2%
O=C(N1CCCCCC1)C1(CCO)CC12CCOCC2 (configuration not stated)	7%
O=C(CCc1conc1-c1ccccc1)NCc1ccccc1F	3%
COc1cc(NC(=O)c2ccc3c(c2)N(C)C2CCCN2C3=O)cc(OC)c1OC (configuration not stated)	0%
COCC1CN(C(=O)C2CC=CC2)CC12CCNCC2 (configuration not stated)	0%
O=C(Nc1ccc(F)c(F)c1)c1cc2n(n1)CC(c1ccc(Br)cc1)OC2 (configuration not stated)	?
C=CCNC(=O)c1ccc2cncn2c1	24%[70.6 µM]

Ordered by molar mass (smallest number first): 19 of the compounds above.
SMILES	hNpr1 antagonist
C=CCNC(=O)c1ccc2cncn2c1	24%[70.6 µM]
COCC1CN(C(=O)C2CC=CC2)CC12CCNCC2 (configuration not stated)	0%
O=C(N1CCCCCC1)C1(CCO)CC12CCOCC2 (configuration not stated)	7%
COc1cccc(CNC(=O)c2cc3c(=O)[nH]c(C)cn3n2)c1	19%
CCN1C(=O)CCN(Cc2ccc(O)cc2)CC12CCOCC2	-2%
O=S(=O)(c1cccc2nonc12)N1CCC2(CCCNC2)C1 (configuration not stated)	-2%
O=C(CCc1conc1-c1ccccc1)NCc1ccccc1F	3%
COc1ccc(-c2ccc3c(c2)C(=O)N2C[C@H](O)C[C@H]2C(=O)N3)cc1	6%[70.6 µM]
COC[C@@H]1CN(C(=O)CC2=CCCCC2)C[C@H]1c1nc(C2CC2)no1	6%
CC(Oc1ccccc1)C(=O)N1CCC(Cc2nncn2C(C)C)CC1 (configuration not stated)	-5%
COCC(c1ccccn1)N(C)C(=O)c1cc(S(N)(=O)=O)ccc1F (configuration not stated)	3%
C[C@@H](NC(=O)C1=C[C@@H](NC(=O)NC2CCCCC2)[C@@H](O)[C@H](O)C1)C(N)=O	-1%[70.6 µM]
COCC(=O)N[C@H]1CC[C@]2(C)CC[C@@H](C(C)C(=O)NC3CC3)[C@H](O)[C@H]2[C@@H]1C (some centres not stated)	4%[70.6 µM]
O=C(C[C@@H]1CCNC[C@@H]1Cc1cc(CC2CCCCC2)on1)N1CCOCC1	-1%[70.6 µM]
COCc1ccc(CN2CCCC(CNC(=O)c3cccc(OC)c3OC)C2)o1 (configuration not stated)	1%
COc1cc(NC(=O)c2ccc3c(c2)N(C)C2CCCN2C3=O)cc(OC)c1OC (configuration not stated)	0%
CCOc1cccc(CNC(=O)c2ccc(CN3C(=O)NC4(CCOCC4)C3=O)cc2)c1	-25%
O=C(CCC1CCCN(S(=O)(=O)c2ccccc2F)C1)NCc1cc(F)ccc1F (configuration not stated)	4%
COc1ccc(CN2C=C(C(=O)OCc3nc(-c4ccc(F)cc4)no3)C(C)=NS2(=O)=O)cc1	?

The listing continues:
SMILES	hNpr1 antagonist
COc1ccc(C(=O)N2CCCC3(COc4ccccc4C(=O)N3)C2)cc1 (configuration not stated)	0%
COc1ccccc1NC(=O)N1CCC2(CCNC(=O)CC2)CC1	6%
COc1ccc(-n2nc(C3CCN(C(=O)c4cccc(Cl)c4)CC3)[nH]c2=O)cc1	?
Cc1cc(OCC(=O)O)c(C)c2c1CC[C@@H]([C@H](C)C(=O)N1CCC(O)CC1)C2	7%[70.6 µM]
CC(C)(C)c1ccc(C(=O)Nc2nc3c(s2)C[C@@H]2[C@](C)(CO)[C@H](O)CC[C@@]2(C)[C@@H]3CC(=O)NCc2cccs2)cc1	3%
CCN1CCN(CC(O)COc2cccc(CN(C)Cc3cc(C)on3)c2)CC1 (configuration not stated)	3%
Cc1noc(C2CC3(CCN(C(=O)C4CC4)CC3)CN2C)n1 (configuration not stated)	-1%
CNc1nc2c(c(C(=O)N3CCCC3)n1)CN(C(=O)C(C)n1cc(C)cn1)CC2 (configuration not stated)	3%
CCC(=O)Nc1ccc(C2(C(=O)N3CCN(c4ccccc4)CC3)CCC2)cc1	6%
Cc1cn2nc(C(=O)NCCc3ccccc3)cc2c(N2CCCC2)n1	3%
COC[C@@H]1CN(Cc2cn(C)nc2C)C[C@H]1C(=O)NC1CC1	2%
CCOc1ccccc1C1NC(=O)N(CC(=O)NCc2ccccc2Cl)C2=C1C(=O)OC2 (configuration not stated)	-6%
Cc1cc(OC2CN(Cc3cccc4ccccc34)C2)ccc1F	-20%[70.6 µM]
CCOc1ccc(NC(=O)Cn2c(N3CCCCC3)nc(C)c(C)c2=O)cc1	-10%

Another view of some results above.
SMILES,hNpr1 antagonist
CCN1CCN(CC(O)COc2cccc(CN(C)Cc3cc(C)on3)c2)CC1 (configuration not stated),3%
Cc1noc(C2CC3(CCN(C(=O)C4CC4)CC3)CN2C)n1 (configuration not stated),-1%

This is a subset. The share of hits here may be higher or lower than overall.
